Autofluor counter: flagged as autofluorescent in microsphere protease counterscreen; fluorescence intensity (test concentration not listed); 3.1% of 360,000 active; compound autofluorescence counterscreen, microsphere flow cytometry; hits give high values;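 active = at least 3 SD above the mean of all compounds, about 16000 in these data; inconclusive = too few beads counted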;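 note: 100 nL of 1 mM stock went into each well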
Sa ugtP lethal: compounds lethal to S. aureus RN4220 ugtP deletion mutant; growth inhibition, % (concentration not given with the values); OD600 growth, 16 h; some inactives read as strong as hits; 0.54% of 330,000 active; AID 1259309;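 active = z-score under -3 and OD600 up to 0.15 on both plates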;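 note: plate controls were untreated wells for no effect and antibiotic for full effect; wells of about 80 µL received 100 nL stock; the first replicate is given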
RN4220 kill: kills Staphylococcus aureus RN4220; S. aureus RN4220 growth, OD600, 16 h; inhibition, % (concentration not given with the values); 0.33% of 330,000 active;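 active = z-score of -3 or lower and OD600 up to 0.18 on both plates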;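 note: plate controls were untreated cells for no effect and reference antibiotic for full effect; stock transfer was 100 nL into about 80 µL; one replicate is shown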
PrP 5UTR inh: inhibition of PrP 5' UTR reporter expression | cell-based PrP 5' UTR mRNA reporter, plate reader | 0.35% of 340,000 active | inhibition, % (test concentration not listed);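 active = every replicate at 50% or more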;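 note: 0 = median of the neutral control wells; tested in H4 reporter cells; numbers are from one replicate; inactives centre near -14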
BJeLR lethal: kills HRASV12-expressing BJeLR cells. BJeLR (HRASV12) viability, CellTiter-Glo ATP luminescence, 48 h; reference of the scale not given here. inhibition, % (test concentration not listed). 0.17% of 300,000 active. AID 1554;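 active = replicate mean above 50%; inconclusive = above 50% but judged a plate artefact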;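 note: 50 nL library stock added to about 25 µL; numbers are from one replicate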
Mtb hypoxia rep: reduces hypoxia-regulated biosensor signal in M. tuberculosis; fluorescence inhibition, % (concentration not given with the values); AID 1159583; M. tuberculosis hypoxia-regulated fluorescent reporter, fluorescence; 0.1% of 300,000 active;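 active = 35 to 45% if threefold the growth effect, above 45% if 1.5-fold the growth effect; inactive = the rest, general growth blockers included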;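 note: wells of about 50 µL received 100 nL stock; 0% = vehicle wells and 100% = reference inhibitor wells; whole bacteria with a GFP reporter of the hypoxia response; strong numbers were not always called active; many hits fall short of the cut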
Mtb hypoxia rep growth: recorded beside Mtb hypoxia rep, whose call it bears; growth inhibition, %; measured here: M. tuberculosis growth (absorbance);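 0% = vehicle and 100% = reference antibiotic; read after six days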
Active calls of the source: *; ? = inconclusive; . = no result given. Outcome played no part in choosing rows; any-hit rate near 4.1%.

Every second line gives: Autofluor counter	Sa ugtP lethal	RN4220 kill	PrP 5UTR inh	BJeLR lethal	Mtb hypoxia rep	Mtb hypoxia rep growth
CC(=O)c1cc(C)ccc1OC(=O)c1cccnc1
    2248	2	-3.4	-28	1	.	.
COC(=O)/C(C#N)=C/c1occc1C
    6821	3	-0.2	-4	-9	0	5
COCCn1c(=S)[nH]c2cc(C(=O)N3CCN(Cc4ccc5c(c4)OCO5)CC3)ccc2c1=O
    ?	-2	-3.6	-14	.	1	-1
COc1ccc(-c2nn(CCC#N)cc2C(=O)Nc2ccccc2Br)cc1
    3765	1	0.4	-3	-15	-1	11
CCCCNC(=O)COc1ccccc1C(=O)c1cc(C#N)c(=O)n(CCOC)c1
    8706	-10	0.6	6	0	0	9
O=C(Cn1nc(C(F)(F)F)c2c1CCC2)NCc1ccc(Cl)cc1
    3165	-15	-12	-4	1	4	12
Cc1noc(NS(=O)(=O)c2ccc(NC(=O)c3ccc(N(C)C)cc3)cc2)c1C
    3844	-3	5.2	-12	.	18	10
COc1cc(C(=O)NCC(=O)NCCCSc2ccccc2)cc(OC)c1OC
    6447	9	2.6	-14	.	2	-2
CCN1C(=O)[C@@H]2Cc3c([nH]c4ccccc34)C(c3ccc(OC)cc3)N2C1=S (stereo partly specified)
    4098	-10	-10	-3	14	1	-12
COc1ccc(NC(=O)C23CC4CC(C2)CC(n2cnc(Br)n2)(C4)C3)cc1Cl
    16232*	0	3.9	-10	-12	1	0
C=CCn1c(=O)[nH]c2cc(C(=O)N3CCN(c4ccc(C(C)=O)cc4)CC3)ccc2c1=O
    5776	-12	-4.4	-22	-1	-15	14
COc1cc([N+](=O)[O-])cc(C=NNC(=O)C(C)Nc2cccc(C)c2)c1O (stereo unspecified)
    .	-8	-1.0	.	.	-11	2
Cc1ccc(S(=O)(=O)N2CCOCC2)cc1NC(=O)c1cc(-c2ccccn2)nc2ccccc12
    4866	-2	6.5	-2	3	7	2
COC(=O)CSc1snnc1-c1ccc(F)cc1
    3193	-1	2.3	-11	1	1	7
Cc1ccc(Nc2nc(N/N=C\c3ccc4c(c3)OCO4)nc(N3CCOCC3)n2)cc1
    3528	.	.	4	-5	.	.
CC(=NNC(=O)c1ccccc1[N+](=O)[O-])c1c(O)cc(C)oc1=O
    .	3	1.0	.	.	10	7
CCOC(=O)N1CCc2c(sc3c2c(=O)n(Cc2ccccc2)c(=O)n3Cc2cccc(C)c2)C1
    5161	20	-7.0	-14	6	8	11
CCc1ccccc1NC(=O)c1cc(-c2cccs2)on1
    5911	9	-0.5	-28	-5	7	-1
COc1ccc(CNS(=O)(=O)c2ccc(-c3cnc(C4CC4)o3)cc2)cc1
    5328	-6	2.0	-4	0	-6	-7
Nc1nc(-c2ccc(Cl)cc2)nn1C(=O)c1ccco1
    5416	3	1.4	-32	3	5	6
O=C(NCc1ccncc1)/C(=C\c1ccc(F)cc1)NC(=O)c1ccccc1
    2899	0	2.3	-30	0	2	-1
CC(OC(=O)C1CCCC1)C(=O)Nc1ccc(C(N)=O)cc1 (stereo unspecified)
    4105	-6	-1.6	-16	-6	-2	5
COc1cc(/C=N/Nc2ccc(F)cc2F)cc(OC)c1O
    1910	.	.	-12	0	.	.
O=[N+]([O-])c1ccc(N2CCN(CC3CCCCC3)CC2)cc1
    4138	6	5.1	-20	-6	5	3
O=C(Cn1nnc(-c2ccccc2F)n1)Nc1ccc(S(=O)(=O)NC2CCCC2)cc1
    9159	-11	-6.3	4	2	-3	5
O=c1cc(O)n(-c2ccccc2)c(=S)[nH]1
    2651	6	1.7	-28	-2	.	.
CC(C)(C)NC(=S)NNC(=O)c1ccccc1Cl
    2178	0	4.9	-20	-1	13	6
Cc1[nH]c2ccccc2c1C=NNc1nncn1N
    .	2	5.5	.	.	11	0
Cc1cccc2cc(C3CC(c4cccs4)=NN3S(C)(=O)=O)c(Cl)nc12 (stereo unspecified)
    4343	8	3.1	-4	10	15	4
Cc1ccc2sc(NC(=O)c3ccc(N4C(=O)CCC4=O)cc3)nc2c1C
    6138	0	10	-13	2	2	-6

Quoted at random: 6 entries already listed.
Every second line gives: Autofluor counter	Sa ugtP lethal	RN4220 kill	PrP 5UTR inh	BJeLR lethal	Mtb hypoxia rep	Mtb hypoxia rep growth
Cc1[nH]c2ccccc2c1C=NNc1nncn1N
    .	2	5.5	.	.	11	0
Cc1cccc2cc(C3CC(c4cccs4)=NN3S(C)(=O)=O)c(Cl)nc12 (stereo unspecified)
    4343	8	3.1	-4	10	15	4
O=[N+]([O-])c1ccc(N2CCN(CC3CCCCC3)CC2)cc1
    4138	6	5.1	-20	-6	5	3
COc1cc(/C=N/Nc2ccc(F)cc2F)cc(OC)c1O
    1910	.	.	-12	0	.	.
Cc1ccc2sc(NC(=O)c3ccc(N4C(=O)CCC4=O)cc3)nc2c1C
    6138	0	10	-13	2	2	-6
O=C(Cn1nnc(-c2ccccc2F)n1)Nc1ccc(S(=O)(=O)NC2CCCC2)cc1
    9159	-11	-6.3	4	2	-3	5

More structures.
Every second line gives: Autofluor counter	Sa ugtP lethal	RN4220 kill	PrP 5UTR inh	BJeLR lethal	Mtb hypoxia rep	Mtb hypoxia rep growth
CN1C(=O)Cc2cc(S(=O)(=O)Nc3ccc(N4CCOCC4)cc3)ccc21
    5276	1	2.4	-10	-1	13	11
CCn1c(=O)c2sccc2n(CC(=O)NC2CCCC2)c1=O
    5662	7	2.8	-7	5	-12	-6
CC(C)CN(C(=O)COC(=O)c1ccc([N+](=O)[O-])o1)C1CCS(=O)(=O)C1 (stereo unspecified)
    1879	5	3.8	-15	1	5	8
CC(C)C[C@@H](CO)N1CCN(Cc2ccc(O)cc2)CCC1=O
    3664	.	.	-10	6	.	.
Cc1ccccc1CSCC(=O)NCc1ccco1
    2140	12	1.7	3	-4	14	10
O=C1N/C(=N/N=Cc2ccc(F)cc2)SC1c1ccccc1 (stereo unspecified)
    .	4	1.8	.	.	-1	4
COc1ccc(C(=O)CC(=O)C(=O)Nc2cc([N+](=O)[O-])ccc2OC)cc1
    3474	1	1.4	-2	-3	-15	-1
O=C(COc1ccccc1[N+](=O)[O-])NCC1(N2CCOCC2)CCCCC1
    3027	7	6.7	6	.	1	0
CCN1CCCC1CNC(=O)c1[nH]c2ccc(OC)cc2c1C (stereo unspecified)
    4733	5	-1.1	-13	4	10	4
CN(C)C(=O)CS(=O)(=O)c1ccc(Cl)cc1
    5872	1	1.2	-15	3	-3	11
CC(C(=O)Nc1ccc(F)c(F)c1F)N1CCCCCC1 (stereo unspecified)
    4421	10	2.5	-16	6	-1	6
O=C(N/N=C(\Cc1ncc[nH]1)c1ccccc1)c1ccncc1
    3426	.	.	-1	12	.	.
COc1ccccc1NS(=O)(=O)c1cccc(C(=O)N/N=C(\C)c2ccc3c(c2)OCCO3)c1
    2617	.	.	-13	7	.	.
Cc1ccc(SCC(=O)O/N=C(\N)c2cccnc2)cc1
    6198	.	.	-3	-8	.	.
CC12c3ccccc3C(c3ccccc31)C1C(=O)N(c3cccnc3)C(=O)C12 (stereo unspecified)
    10531	-13	-1.2	-16	10	-3	5

Part of the list above, bar-delimited.
compound | Autofluor counter | Sa ugtP lethal | RN4220 kill | PrP 5UTR inh | BJeLR lethal | Mtb hypoxia rep | Mtb hypoxia rep growth
O=C1N/C(=N/N=Cc2ccc(F)cc2)SC1c1ccccc1 (stereo unspecified) | . | 4 | 1.8 | . | . | -1 | 4
CCN1CCCC1CNC(=O)c1[nH]c2ccc(OC)cc2c1C (stereo unspecified) | 4733 | 5 | -1.1 | -13 | 4 | 10 | 4
CN(C)C(=O)CS(=O)(=O)c1ccc(Cl)cc1 | 5872 | 1 | 1.2 | -15 | 3 | -3 | 11
CCn1c(=O)c2sccc2n(CC(=O)NC2CCCC2)c1=O | 5662 | 7 | 2.8 | -7 | 5 | -12 | -6

(continued)
Every second line gives: Autofluor counter	Sa ugtP lethal	RN4220 kill	PrP 5UTR inh	BJeLR lethal	Mtb hypoxia rep	Mtb hypoxia rep growth
O=[N+]([O-])c1ccc(N2CCNCC2)cc1Sc1ccccn1
    1895	-2	1.6	0	6	4	10
CN(C)c1ccc(Sc2nnc(NC(=O)Nc3ccc(Cl)cc3Cl)s2)cc1
    9459	-2	2.7	-14	-10	3	2
COc1ccc(-c2nc(CNS(=O)(=O)c3cc(OC)ccc3OC)cs2)cc1
    5817	-4	-1.1	1	17	-6	5
CCCN(CC(=O)Nc1ccccc1C)C(=O)CCN1C(=O)c2cccc([N+](=O)[O-])c2C1=O
    5340	4	0.7	-24	4	4	0
Cc1sc2ncnc(N3CCC(C(=O)Nc4nc(-c5ccc(F)cc5)cs4)CC3)c2c1C
    5161	6	-4.3	-16	10	-2	3
O=C(CN1C(=O)C(=O)N(C2CCCC2)C1=O)Nc1ccc(N2CCOCC2)cc1
    2914	3	5.4	-5	-18	9	0
O=[N+]([O-])c1ccccc1C=NOCc1ccccc1
    .	8	3.1	.	.	0	11
Cc1ccc(C)c(OCCCCN2CCCCC2)c1
    3488	7	1.7	-8	-1	6	11
Cc1ccc(C)c(S(=O)(=O)Nc2nc3ccc(S(N)(=O)=O)cc3s2)c1
    2459	8	1.1	-19	6	-2	-1
COc1ccc(CCC(=O)N2CCc3ccccc32)cc1
    8987	10	18	-34	1	5	0
COc1ccc([N+](=O)[O-])cc1N(CC(=O)N1CCCC1)S(C)(=O)=O
    3710	10	5.0	-10	8	1	-2
O=C(O)CSc1cccc2cccc(C(=O)O)c12
    5311	13	5.4	-27	0	7	4
O=C(CNC(=O)c1ccccc1)N/N=C/c1ccccc1Cl
    4626	.	.	-22	2	.	.
O=C(O)c1ccc(NC2(C(=O)O)CCCC2)cc1
    3869	4	0.8	-8	.	-1	-1
CC1(C)Cc2c(C#N)c(N3CCN(C(=O)c4ccccc4)CC3)nc(-c3ccco3)c2CS1
    3687	6	-0.9	-8	.	.	.
O=C(NCCc1ccccc1)c1cc2sccc2n1Cc1ccccc1
    4038	13	-0.6	-11	4	.	.
O=S(=O)(Nc1ccccc1)c1ccc(-c2cnc(C3CC3)o2)cc1
    5356	-2	51	-12	37	1	0
COc1cc(=O)[nH]c(SC(C)C(=O)Nc2cccc3ccccc23)n1 (stereo unspecified)
    3858	-11	4.9	-15	1	14	-2
CC1=CCC(C(=O)O)(C(=O)N/N=C/c2cccs2)C(c2ccc(Cl)cc2)C1 (stereo unspecified)
    19841*	.	.	-23	16	.	.
CCOC(=O)CN1C(=O)N[C@@H](c2cccc(C(F)(F)F)c2)C(C(C)=O)=C1C
    2990	.	.	20	-6	.	.
O=C1CN=C(c2cccc(Br)c2)c2cc(Br)ccc2N1
    2843	6	1.8	-11	9	0	4
O=C(Nc1nc(-c2ccccn2)cs1)C12CC3CC(CC(O)(C3)C1)C2
    4586	-2	6.3	-47	-10	7	7
CC(C)(C)C(=O)Nc1ccc(S(=O)(=O)NC2=NCCCCC2)cc1
    6641	10	2.2	-24	.	4	1
O=C(/C=C/c1cccc(F)c1)NNC(=O)c1ccncc1
    7290	5	4.2	-6	17	10	2
Cc1nc(SCC(=O)Nc2cc(C)on2)c2c(C)c(C)sc2n1
    12900	1	5.0	-23	-8	4	10
O=C(O)c1cccc2nc3ccccc3nc12
    5796	5	25	-4	-11	.	.
CC(=O)Nc1ccc(NC(=O)CNC(=O)c2sc3ccccc3c2Cl)cc1
    6421	-3	0.8	-7	-3	13	2
COc1ccc(C=NN=C2SC(CC(=O)O)C(=O)N2c2ccc(O)cc2)cc1 (stereo unspecified)
    .	4	1.0	.	.	10	4
COc1cc2c(cc1OC)CN(CCOc1ccc(Br)cc1)CC2
    3655	4	1.1	-22	-1	-1	1
FC(F)(F)c1cccc(NC(=S)Nc2cccc(Cl)c2)c1
    3534	93*	100*	8	-7	4	3
Cc1ccccc1OCC(=O)NCC(c1ccco1)N1CCCCC1 (stereo unspecified)
    5974	11	5.5	-5	-17	0	0
O=C(Nc1ccc(S(=O)(=O)NC2=NCCCCC2)cc1)c1ccc(=O)[nH]c1
    4538	5	1.3	-18	-1	8	3
CC1CCCC(NC(=O)c2nn(C)c3c2CS(=O)(=O)c2ccccc2-3)C1C (stereo unspecified)
    5655	6	3.1	-4	2	-3	-2
